GLA inh pH 4.5: qHTS Assay for Inhibitors of Human alpha-Galactosidase at pH 4.5; Alpha-galactosidase A (Homo sapiens), P06280; purified enzyme, 4-MU-alpha-Gal fluorescence, pH 4.5; activity change, negative = inhibition, % at 105 µM; 230,000 tested, under 10 active; inconclusive = small, poorly fitted or top-dose-only inhibition, or a rising curve; inactive = flat fitted curve, though single readings scatter; no compound was filed as active;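 also: 0% = full activity with enzyme and -100% = basal without enzyme; dose as in the result columns while the protocol names 77 µM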
Rango dissoc inh: qHTS Assay for Inhibitors of RanGTP induced Rango (Ran-regulated importin-beta cargo) - Importin beta complex dissociation. Snurportin-1 (Homo sapiens) + GTP-binding nuclear protein Ran (Homo sapiens) + Importin …. Biochemical FRET Rango-importin beta, RanGTP-induced dissociation. Potency, µM (titrated, usually from 46.1 µM), for inactives: top-dose activity change, negative = inhibition. AID 540253, 2011. 340,000 tested, 0.071% active; active means falling FRET ratio curve, often poorly fitted, with flat reads before Ran was added; inconclusive means other falling curves, or compound fluorescence or quenching; inactive means flat or rising ratio curve;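 also: potency is read from the fitted curve at half-maximal effect; % of control where 0% means no effect; nearly all actives have a fitted effect of over 45% in size; -100% = wells without RanGTP and RCC1; the record marks most hits as doubtful in a second field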
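Rango/importin beta premix (0.1/0.25 uM final), PBS + 1 mM DTT + 0.02% Tween-20 + 0.1% BSA; cpd 5 min RT; FRET pre-read; + RanGTP-RCC1 (0.6 uM Ran, 2 mM GTP, 0.2 uM RCC1); 45 min RT; FRET post-read, ex 430, em 486/530 nm.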
Rango complex inh: qHTS Assay for Inhibitors of Rango (Ran-regulated importin-beta cargo) - Importin beta complex formation | Rango CFP/YFP FRET sensor + importin beta, 45 min | Potency, µM (titrated, usually from 92.2 µM), without a hit: top-dose inhibition of complex formation | 340,000 tested, 0.031% active | Importin subunit beta-1 (Homo sapiens), Q14974; active = rising FRET ratio curve, often small or poorly fitted; inconclusive = mostly compound fluorescence or quenching in the first reads; inactive = flat curves in all reads;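 also: potency is read from the fitted curve at half-maximal effect; 0% = DMSO wells and 100% = buffer wells lacking importin beta; nearly all actives have a fitted effect of over 15% in size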
Target sequence (Q14974 whole entry, looked up): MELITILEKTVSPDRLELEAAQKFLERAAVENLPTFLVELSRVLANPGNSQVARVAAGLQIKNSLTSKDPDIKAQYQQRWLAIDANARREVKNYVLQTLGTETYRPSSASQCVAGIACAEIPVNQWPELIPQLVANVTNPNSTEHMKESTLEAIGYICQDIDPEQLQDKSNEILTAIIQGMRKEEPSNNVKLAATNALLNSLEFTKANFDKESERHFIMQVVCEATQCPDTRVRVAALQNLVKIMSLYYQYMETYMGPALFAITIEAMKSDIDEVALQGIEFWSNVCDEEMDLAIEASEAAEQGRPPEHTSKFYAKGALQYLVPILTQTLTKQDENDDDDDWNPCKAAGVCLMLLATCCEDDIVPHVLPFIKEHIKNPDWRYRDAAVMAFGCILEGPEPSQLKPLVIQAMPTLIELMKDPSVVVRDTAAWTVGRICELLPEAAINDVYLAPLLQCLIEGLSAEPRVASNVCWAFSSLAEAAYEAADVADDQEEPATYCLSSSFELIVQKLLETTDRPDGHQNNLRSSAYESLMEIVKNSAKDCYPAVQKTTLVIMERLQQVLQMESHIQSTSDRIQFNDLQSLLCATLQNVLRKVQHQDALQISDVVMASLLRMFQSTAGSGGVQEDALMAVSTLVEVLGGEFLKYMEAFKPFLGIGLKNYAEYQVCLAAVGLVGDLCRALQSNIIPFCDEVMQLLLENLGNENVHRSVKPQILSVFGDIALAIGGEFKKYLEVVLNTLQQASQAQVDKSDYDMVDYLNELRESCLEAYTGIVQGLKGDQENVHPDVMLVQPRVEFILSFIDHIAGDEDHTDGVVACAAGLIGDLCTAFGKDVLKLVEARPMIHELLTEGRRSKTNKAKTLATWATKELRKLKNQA
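FRET biosensor (snurportin 1 IBB flanked by EYFP and cerulean), 50 nM, with compound 5 min, then 0.125 microM importin beta in PBS, 1 mM DTT, 0.02% Tween-20, 0.1% BSA. CFP/YFP ratio read after 45 min at room temperature; pre-read flags interference.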
miR-21 reporter: qHTS Assay for Modulators of miRNAs and/orActivators of miR-21; HeLa miR-21 FLuc reporter, luciferase, 48 h; Potency, µM (titrated, usually from 38.3 µM), for the others: at the top dose reporter change, positive = more light; 340,000 tested, under 10 active; active = well fitted rising curve with a large enough effect; inconclusive = small, poorly fitted or top-dose-only effect; inactive = no such curve, though single readings can be large or run the other way;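 also: % of control where 0% means no effect; miR-21 action dims this reporter so a rising signal means less miR-21 action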
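HeLa cells stably expressing CMV-driven firefly luciferase with a downstream miR-21 binding sequence, endogenously expressing miR-21, were treated with titrations (up to about 40uM final) for 48 hours at 37 degree Celsius. Luciferase luminescence was read after lysis.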
Numbers without * were called inactive; u = inconclusive; x = no result given; & = joins results of further samples. This is a subset. The share of hits here may be higher or lower than overall.

The first 2 compounds as a preview:
No.	canonical_smiles	Rango dissoc inh	GLA inh pH 4.5	Rango complex inh	miR-21 reporter
1	CC(C)n1nc(C(=O)NNC(=O)c2ccncc2)c2ccccc2c1=O	5%	x	4.7%	x
2	CN(CC(=O)Nc1ccc(Cl)cc1F)C1CCS(=O)(=O)C1 (stereo unspecified)	-2%	x	u	x

The listing, previewed entries included:
No.	canonical_smiles	Rango dissoc inh	GLA inh pH 4.5	Rango complex inh	miR-21 reporter
1	CC(C)n1nc(C(=O)NNC(=O)c2ccncc2)c2ccccc2c1=O	5%	x	4.7%	x
2	CN(CC(=O)Nc1ccc(Cl)cc1F)C1CCS(=O)(=O)C1 (stereo unspecified)	-2%	x	u	x
3	CCOc1cc(NC(=O)c2ccco2)c(OCC)cc1NC(=O)Cc1cccc(OC)c1	7%	-2	1.2%	1%
4	O=C(COC(=O)CCCc1c[nH]c2ccccc12)Nc1ccc2c(c1)OCO2	-1%	5	0.8%	1%
5	CC1(C)CC(=O)C2=C(C1)N(c1ccc(F)cc1)C(=O)C2(O)C(F)(F)F (stereo unspecified)	-15%	-5	-0.7%	-6%
6	CCOC(=O)c1cnn(CCOC(=O)c2cccc(F)c2)c1NC(=O)c1cccc(F)c1	0%	-2	u	-5%
7	Nc1c2c(nc3ccn(Cc4ccccc4)c(=O)c13)CCC2	3%	-3	0.4%	-36%
8	Cc1cccc2c1NC(=O)C2(O)N1CCCC(C)C1 (stereo unspecified)	-10%	x	0.0%	-18%
9	CCOC(=O)c1c(C)[nH]c(C)c1C(=O)COC(=O)c1ccccc1O	1%	-2	1.4%	-6%
10	COc1cc(CN2CCN(S(=O)(=O)c3ccc(F)cc3)CC2)cc(OC)c1OC	13%	5	-0.2%	2%&0%
11	COc1ccc2c(c1)CCc1c(C(=O)NCCCn3ccnc3)noc1-2	-4%	-1	u	-22%
12	O=C(Nc1ncccn1)c1cc(-c2cccc(Br)c2)nc2ccccc12	u	-12	-1.6%	16%
13	CCC(=O)n1nc(-c2ccc(Cl)cc2)nc1NCc1ccccc1	-11%	-1	0.0%	-19%
14	CCc1cccc(C)c1NC(=O)COC(=O)C1CCN(S(=O)(=O)c2ccccc2)CC1	15%	x	-1.2%	x
15	CCOC(=O)c1c(NC(=O)c2cccc(N3C(=O)CCC3=O)c2)sc2c1CCN(CC)C2	-17%	x	u	-6%
16	CCOC(=O)Nc1nc(-c2ccc(Cl)cc2Cl)cs1	-11%	0	6.4%	-52%
17	COc1ccc([N+](=O)[O-])cc1NS(=O)(=O)c1ccc(Cl)c(C(=O)Nc2sc3c(c2C#N)CCCCC3)c1	x	-3	x	0%
18	O=C(Nc1ccccc1N1CCN(C(=O)c2ccccc2)CC1)c1ccc([N+](=O)[O-])o1	-1%	x	-2.4%	8%
19	C=C(C)CSc1nnc2n(C)c(=O)c3c4c(sc3n12)CCC4	2%	3	-7.2%	1%
20	CC(C)CCOc1ccc(C(=O)N2CCN(c3ncccn3)CC2)cc1	-8%	x	0.5%	-1%
21	N#Cc1c2c(c(-c3ccco3)[nH]c1=O)CCCC2	-13%	-1	-5.5%	-2%
22	CN(NS(=O)(=O)c1ccc(Cl)cc1)c1nc(C(F)(F)F)nc2ccccc12	-5%	-26	3.2%	21%
23	Cc1cc(C)c(C)c(S(=O)(=O)NCc2ccc(C(=O)N3CCCC3)cc2)c1C	-19%	3	0.5%	15%
24	Nc1nc2nccc(-c3ccc(Cl)cc3)n2n1	15%	u	-1.0%	-46%
25	C=CCSc1nnc(CC(OC)OC)n1-c1ccccc1	-1%	2	-1.3%	-2%
26	CCCc1c(C(=O)N/N=C/c2ccc(OC)c(OCc3ccccc3)c2)nnn1-c1nonc1N	18%	x	0.3%	-6%
27	COc1cccc(CNC(=O)CCC2CCCN(Cc3ccc(OC(F)F)cc3)C2)c1 (stereo unspecified)	11%	-2	0.9%	10%
28	COC(=O)c1ccccc1NC(=O)c1ccnn1C	-5%	1	-1.2%	-5%
29	COCCN(CCOC)S(=O)(=O)NC[C@H]1O[C@@H](n2cnc3c(N)ncnc32)[C@H](O)[C@@H]1O	9%	x	1.5%	x
30	O=C(NC(=S)NNC(=O)c1ccccc1O)c1cccc([N+](=O)[O-])c1	-12%	x	0.1%	0%
31	COc1ccc(CNC(=O)C2CC(=O)N(C3CCCC3)C2)cc1 (stereo unspecified)	0%	x	1.4%	-2%
32	COc1ccc(-c2nnn(CC(=O)N3CCOCC3)n2)cc1	14%	9	-1.0%	0%
33	Cc1cccc(C=Nc2ccccc2C(N)=O)c1	-2%	-8	-2.9%	8%
34	CC(=O)c1c(C)n(-c2cccc(Cl)c2)c2ccc(O)cc12	-9%	x	-2.5%	2%
35	C/C(CC1(O)C(=O)N(C)c2ccccc21)=N\O (stereo unspecified)	1%	8	u	-1%
36	O=C(Nc1cccc(S(=O)(=O)NC2=NCCC2)c1)c1cnc(Cl)c(Cl)c1	-7%	x	-0.7%	x
37	COc1ccc(N2CCN(C(=O)CSc3ccc(C)cc3)CC2)cc1	3%	7	0.5%	-2%
38	CC(=O)OCCOc1nc(NC(C)C)nc(NC(C)C)n1	27%	5	-1.9%	-2%
39	OCCOCCOc1ccccc1OCCOCCO	0%	2	3.5%	1%
40	O=C(O)c1ccc2c(c1)C(=O)N(Cc1ccc3c(c1)OCO3)C2=O	6%	-8	2.3%	-3%
41	O=C(CC1NCCN(Cc2ccccc2)C1=O)Nc1ccccc1 (stereo unspecified)	5%	4	-1.0%	-3%
42	O=C(NNC(=O)c1cc(OCC(F)(F)F)ccc1OCC(F)(F)F)c1cccc(C(F)(F)F)c1	-6%	-2	-5.7%	-19%
43	CCn1c(SCc2cccc(C(=O)O)c2)nnc1-c1ccc(Cl)cc1	-3%	x	-3.0%	-7%
44	Cc1cc(C)c2c(CN3CCN(Cc4ccccc4)CC3)cc(=O)oc2c1C	28%	x	0.8%	-1%
45	COC(=O)C/C=C/[C@@H](C)[C@@H](/C=N/OC[C@@H](C)[C@H](OCc1ccccc1)C(C)C)NS(=O)(=O)c1ccc(C)cc1	x	-7	x	-3%
46	COc1cc(/C=C2\SC(=O)N(CC(=O)Nc3cccc(C)c3)C2=O)cc([N+](=O)[O-])c1O	-1%	-17	u	-6%
47	O=c1[nH]c(=S)[nH]cc1Oc1ccc(Cl)cc1	14%	x	-0.4%	x
48	CCOc1cc(/C=N/NC(=O)CSc2nncn2C)ccc1OCc1cccc(C)c1	1%	0	3.8%	-8%
49	CCOc1ccc(-c2csc(NC(=O)CSC3=NC(=O)CN3C(C)=O)n2)c2ccccc12	-5%	7	2.1%	1%
50	COc1ccc(CCNC(=O)COC(=O)c2cc3ccccc3oc2=O)cc1OC	9%	x	2.1%	x
51	Nc1ccc(C(=O)N/N=C/c2sc(N3CCOCC3)nc2-c2ccccc2)cc1	u	-30	u	-1%
52	COc1ccc(OC)c(N/C=C/C(=C(C#N)C#N)N(C)C)c1	1%	-15	u	1%
53	N#CC1=C(SCC(=O)NC2CC2)NC(=O)C(C#N)C12CCCCC2 (stereo unspecified)	-6%	11	8.0%	-7%
54	O=C(Nc1ccc(OC(F)(F)F)cc1)N1CCN(c2ccnc3cc(Cl)ccc23)CC1	2%	-29	-4.3%	25%
55	O=C(Nc1ccc(Br)cc1F)C1CCN(c2nnc(-n3cccc3)s2)CC1	-5%	0	-3.0%	-5%
56	CCCc1sc(N)nc1-c1ccc(C)cc1	3%	1	2.4%	-4%
57	COc1ccc(NS(=O)(=O)c2cccc3cccnc23)cc1OC	-5%	x	0.3%	16%
58	CCCCNC(=O)OCCNC(=O)NC	1%	7	-2.6%	-5%
59	COc1ccc(S(=O)(=O)N(CC(=O)NC2CC2)c2ccc(C)cc2)cc1	-1%	-2	-11%	0%
60	Cc1ccc(C)c(NC(=O)C2CCN(S(=O)(=O)c3ccc4c(c3)NC(=O)CO4)CC2)c1	0%	x	-2.5%	20%

Following part.
No.	canonical_smiles	Rango dissoc inh	GLA inh pH 4.5	Rango complex inh	miR-21 reporter
61	COC(=O)c1ccccc1NC(=O)CN(C)Cc1ccccc1	7%	-3	0.7%	2%
62	CCOC(=O)C1CCCN(Cc2cccc(Oc3ccccc3)c2)C1 (stereo unspecified)	2%	x	-1.8%	-10%
63	CCOC(=O)c1ccc(-c2ccc(C3Nc4ccccc4C(=O)N3O)o2)cc1 (stereo unspecified)	1%	-1	1.2%	-16%
64	N#Cc1ccccc1Cn1cc(/C=N/Nc2ccc([N+](=O)[O-])cn2)c2ccccc21	u	-1	5.3%	-4%
65	O=C(NNC(=O)c1ccccc1-n1cccc1)c1ccc(Cl)cc1	8%	-1	-0.8%	1%
66	O=[N+]([O-])c1ccc(OCc2cnc(Cl)s2)cc1	-2%	0	-0.9%	-25%
67	CCCOc1ccc2[nH]c(C(=O)N/N=C/c3cc(OC)c(OC)c(OC)c3)cc2c1	-5%	x	-1.1%	2%
68	Cc1ccc(Cn2ccnc2C(=O)Nc2ccccc2)cc1	-8%	0	0.0%	-42%
69	CCOC(=O)c1ccc(N=C2S/C(=C\c3cc(C)n(-c4cccnc4)c3C)C(=O)N2C)cc1	-10%	-5	-0.8%	-3%
70	Cc1[nH]c(=S)[nH]c(=O)c1CCOc1ccccc1	12%	3	-0.1%	-1%
71	Cc1ccc(NC(=O)c2cc(-c3ccccc3)nn2-c2ccccc2)c(Br)c1	-1%	-3	-0.3%	-3%
72	CC1CN(C(=O)/C(C#N)=C2\N=C(NC(=O)c3ccccc3Cl)c3ccccc32)CC(C)O1 (stereo unspecified)	x	-1	x	-5%
73	CCOc1cc(N2CCOCC2)c(OCC)cc1NC(=O)COC(=O)CCc1c[nH]c2ccccc12	15%	2	2.1%	-1%
74	Cc1ccc(C)c(C(=O)COC(=O)c2ccc(C)c(S(=O)(=O)N3CCOCC3)c2)c1	-3%	x	-4.2%	x
75	CCS(=O)(=O)CCSC(=N)N	4%	4	2.3%	5%
76	COc1ccc(NC(=O)C2CCN(C(=O)c3cccs3)CC2)cc1	-3%	6	1.2%	-4%
77	COc1ccc(CNC(=O)CN2C(=O)NC3(CCCc4sccc43)C2=O)cc1OC (stereo unspecified)	-5%	x	3.0%	x
78	CCC(C)[C@H](NC(=O)N1CC(=O)Nc2ccccc21)C(=O)N1CCC[C@@H]1C(=O)O (stereo partly specified)	3%	x	0.5%	0%
79	CCC(NS(=O)(=O)c1ccc(C)cc1)C(=O)Nc1ccc(NC(C)=O)cc1 (stereo unspecified)	-10%	-1	-2.2%	-3%
80	CCC1=NN2C(=N)/C(=C\c3ccc(OCc4cc(=O)n5nc(CC)sc5n4)c(OC)c3)C(=O)N=C2S1	-3%	-17	-9.1%	2%
81	CC(C)N1CCC(N2CCN(Cc3nc4ccccc4s3)CC2CCO)CC1 (stereo unspecified)	-13%	5	u	-10%
82	CCOC(=O)c1c(N)sc2c1CCC(CC)C2 (stereo unspecified)	-7%	-19	-3.9%	-13%
83	COc1ccccc1CN(Cc1nc2ccccc2c(=O)[nH]1)S(=O)(=O)c1ccc(C)cc1	0%	2	1.4%	24%
84	CC(=O)Nc1ccc(S(=O)(=O)N2CC3(C)CC2CC(C)(C)C3)cc1 (stereo unspecified)	-6%	-4	3.9%	-5%
85	CCN(Cc1nc2ccccc2c(=O)[nH]1)C(=O)CN1C(=O)NC2(CCCCC2C)C1=O (stereo unspecified)	24%	x	-0.8%	x
86	COc1ccc(OC)c(S(=O)(=O)NC2CCSc3ccccc32)c1 (stereo unspecified)	12%	x	4.0%	4%
87	O=C(/C=C/c1ccc(-c2ccccc2[N+](=O)[O-])o1)c1ccco1	u	0	u	-15%
88	CC(C)N(C)CCOC(=O)c1ccccc1Br	11%	-6	-4.2%	-6%
89	Oc1ccccc1/C=N/Nc1nn[nH]n1	0%	8	-0.4%	0%

Assay outcomes deposited in PubChem BioAssay by National Center for Advancing Translational Sciences (NCATS).
